# From PubChem BioAssay
# CBX7 AlphaScr: CBX7 inhibition, primary AlphaScreen. AlphaScreen His6-CBX7 / biotin-H3K27me3 peptide binding; stronger effect = lower value. normalised signal (fraction of DMSO) (no concentration beside the values). hit rate 1.1% among 66,000; in the data active = normalised signal below about 0.5;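 note: 100 nL library stock added to about 20 µL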
# Target sequence (O95931 whole entry, looked up): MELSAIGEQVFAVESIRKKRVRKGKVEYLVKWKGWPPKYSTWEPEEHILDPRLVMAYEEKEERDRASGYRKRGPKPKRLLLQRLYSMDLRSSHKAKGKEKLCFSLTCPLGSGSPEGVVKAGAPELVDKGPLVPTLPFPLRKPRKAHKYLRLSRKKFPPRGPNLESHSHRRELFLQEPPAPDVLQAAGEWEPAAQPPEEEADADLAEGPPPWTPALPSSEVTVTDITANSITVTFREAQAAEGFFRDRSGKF
# CBX7 AlphaScr z-score: further read-out of CBX7 AlphaScr, marked with its call; z-score; measured here: z-score of CBX7 signal; some inactives read as strong as hits; reference of the scale not given here;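 same signal on another scale; lower means less binding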
# * hit, by the source's call.
SMILES | CBX7 AlphaScr | CBX7 AlphaScr z-score
COc1ccccc1NC(=O)CC1NCCNC1=O (stereo not drawn) | 0.983 | -0.385
CCCCNC(=O)c1ccc2c(c1)N(Cc1c(F)cccc1Cl)C(=O)CS2 | 1.04 | 0.0766
CCOc1ccc2nc(Nc3nc4c(c(=O)[nH]3)CCC4)nc(C)c2c1 | 1.01 | 0.186
CC(C)=CCc1c2c(c3oc(-c4ccc(O)cc4)cc(=O)c3c1O)C=CC(C)(C)O2 | 0.946 | -0.58
Cc1cccc(C(=O)NCc2nc3ccccc3[nH]2)c1 | 0.842 | -1.82
Cc1ccccc1-n1nc2c(c1NC(=O)C(C)Oc1ccccc1)CS(=O)(=O)C2 (stereo not drawn) | 1.12 | 0.808
CCN(CC)CCNC(=O)CN1C(=O)COc2ccc(C)cc21 | 1.1 | 1.7
COc1ccc(N2CCN(C(=O)c3ccc4nc(-c5cccs5)c(-c5cccs5)nc4c3)CC2)cc1 | 0.598 | -1.13
CCOC(=O)c1ccc(NC(=O)c2c(NCc3cccs3)sc3c2CCC(C)C3)cc1 (stereo not drawn) | 0.681 | -0.359
COc1cccc(NC(=O)C(Cc2ccccc2)NS(=O)(=O)c2cccc3cccnc23)c1 (stereo not drawn) | 1.01 | 0.11
COc1cccc(C(=O)Nc2c(C(=O)Nc3cccc(F)c3)oc3ccccc23)c1 | 1.18 | 2.27
CC1(C)CC(=O)c2sc(NC(=O)c3cccc(Cl)c3)nc2C1 | 0.966 | -0.831
COc1cccc(-c2cc(C(=O)NCc3cccnc3)no2)c1 | 1.05 | 1.08
Cc1[nH]c2c(Cl)cccc2c(=O)c1CN1CCC(C)CC1 | 1.06 | 1.1
COCCNC(=O)c1cc(-c2ccc(Cl)c(Cl)c2)on1 | 0.971 | -0.975
COc1ccc(CNC(=O)c2cnn3c(C)c(Cc4ccccc4Cl)c(C)nc23)cc1 | 1.04 | 1.19
Oc1cccc(-c2nc(-c3ccccc3)c(-c3ccc(F)cc3)[nH]2)c1 | 0.348* | -16.3*
COc1ccc(-c2cn(-c3ccc(Cl)cc3)c(SCC(=O)Nc3cccc(C)c3)n2)cc1OC | 0.526 | -3.6
CC(C)NC(=O)c1cc2nc(-c3ccc(Br)cc3)cc(C(F)(F)F)n2n1 | 1.1 | 2.56
Cc1cc2ncn(CC(O)COc3ccc(C(C)C)cc3)c2cc1C (stereo not drawn) | 0.713 | -7.24
N#Cc1nc(COc2ccc(Br)cc2)oc1N1CCC(C(N)=O)CC1 | 1.12 | 0.917
CCCSc1nnc(Cc2cc(=O)[nH]c(=O)[nH]2)n1-c1ccc(Cl)cc1 | 0.964 | -0.963
CCOC(=O)c1[nH]c2c(c1C)C(=O)CC(c1cccc(OC)c1)C2 (stereo not drawn) | 1.08 | 3.18
CCC1=Nc2cc(C(=O)NCCN3CCOCC3)ccc2Sc2ccccc21 | 0.964 | -0.413
COc1cc(OC)c(N(C)C(=O)Cc2c(C(=O)O)[nH]c3ccccc23)cc1Cl | 0.773 | -0.896
CC1CCN(CCCNC(=O)Cn2nc(Cc3ccncc3)c3ccccc3c2=O)CC1 | 0.975 | -0.831
CCN1CCCC1CNC(=O)Cn1ncc2c1-c1ccccc1OC2 (stereo not drawn) | 1.17 | 2.08
Cc1ccc(C(=O)Nc2ccccc2C(=O)O)cc1S(=O)(=O)N1CCCCCC1 | 0.969 | -1.1
O=C(NC1CC1)c1cc(-c2cccnc2)nc2ccc(S(=O)(=O)N3CCCCCC3)cc12 | 0.946 | -1.34
COc1ccc(C2CC(=O)Nc3cc(OC)c(OC)cc32)cc1Cl (stereo not drawn) | 0.874 | -1.62
Cc1nc(Nc2c(F)cccc2F)c2c(C)c(C)sc2n1 | 0.891 | -1.06
COc1ccc(CCNC(=O)C2CCC(=O)N2Cc2ccccc2Cl)cc1OC (stereo not drawn) | 1.06 | 1.77
COc1ccc(CNC(=O)CSc2nc3nc(C)c(Cc4ccc(C)cc4)c(C)n3n2)cc1 | 1.21 | 1.24
CC(=O)Nc1nnc(CCS(=O)(=O)c2ccc(Br)cc2)s1 | 1.04 | 1.83
CCOc1ccc(OC(=O)c2sc3ncn(Cc4cccc(F)c4)c(=O)c3c2C)cc1 | 1.02 | 0.278
Cc1ccc2c(c1)c(-c1ccccc1)c(-c1ccccc1)n2CC(O)Cn1c(C)cc(C)nc1=O (stereo not drawn) | 0.754 | -3.56

# Random excerpt: 5 records from the list.
SMILES | CBX7 AlphaScr | CBX7 AlphaScr z-score
COc1ccc(CNC(=O)CSc2nc3nc(C)c(Cc4ccc(C)cc4)c(C)n3n2)cc1 | 1.21 | 1.24
Cc1ccc(C(=O)Nc2ccccc2C(=O)O)cc1S(=O)(=O)N1CCCCCC1 | 0.969 | -1.1
COc1cc(OC)c(N(C)C(=O)Cc2c(C(=O)O)[nH]c3ccccc23)cc1Cl | 0.773 | -0.896
COc1ccc(C2CC(=O)Nc3cc(OC)c(OC)cc32)cc1Cl (stereo not drawn) | 0.874 | -1.62
Cc1ccc2c(c1)c(-c1ccccc1)c(-c1ccccc1)n2CC(O)Cn1c(C)cc(C)nc1=O (stereo not drawn) | 0.754 | -3.56

# Next part
SMILES | CBX7 AlphaScr | CBX7 AlphaScr z-score
O=C([C@@H](c1ccccc1)N1Cc2ccccc2C1=O)N1CCN(Cc2ccccc2)CC1 | 0.918 | -1.47
Cc1ccc(NC(=O)CSc2nnc(-c3cccs3)n2-c2ccc(F)cc2)cc1 | 1.1 | 0.968
CC1CCN(c2nnc(-c3ccccc3)c3ccccc23)CC1 | 0.919 | -2.08
COC(=O)c1cc2c(s1)CN(C1CCC(C)CC1)C2 (stereo not drawn) | 1.03 | 0.392
CC1CCc2c(sc(NC(=O)c3ccccc3Cl)c2C(=O)N2CCCCCC2)C1 (stereo not drawn) | 0.902 | -1.16
Cc1ccc(-c2nc3cnccn3c2Nc2ccccc2C)cc1 | 1.08 | 0.893
OC(CNCCc1ccccc1)Cn1c2ccccc2c2ccccc21 (stereo not drawn) | 1.08 | 1.38
C=C(C)Cn1c(C(C)NC(=O)c2ccc(Cl)cc2)nc2ccccc21 (stereo not drawn) | 1.04 | 0.596
CCOC(=O)c1cc(-c2ccccc2)n(CCC(=O)N2CCN(c3ccccc3F)CC2)c1C | 1.01 | 0.172
CCCN1Cc2cccc(C(=O)NCc3ccc(Cl)cc3)c2C1=O | 1.06 | 0.747
COc1ccc(S(=O)(=O)Nc2ccc(-c3csc(C)n3)cc2)cc1 | 0.931 | -1.25
CC(C(=O)NCCCN1CCCC1)n1ncc2ccccc21 (stereo not drawn) | 1 | 0.00976
Cc1ccc(N2CC(C(=O)NCCC(C)C)CC2=O)cc1 (stereo not drawn) | 0.912 | -1
C=CCNC(=O)c1cc2c(n(-c3ccc(OC)cc3)c1=O)CC(C)(C)CC2=O | 1.12 | 3.12
CCc1ccc(-c2nc(CN3CCC(C(=O)NC4CCCCCCC4)CC3)c(C)o2)cc1 | 0.977 | -0.349
COc1cccc(Nc2nc(C)cc(C)c2C(N)=O)c1 | 1.03 | 1.21
CCN1C(=O)c2ccccc2Sc2ccc(C(=O)O)cc21 | 0.934 | -1.66
O=C(CSc1nnc(-c2ccccc2)o1)N1CCCC1 | 0.909 | -0.209
Cc1ccc(-c2cc(C(F)(F)F)n3ncc(C(=O)Nc4cccc(Cl)c4Cl)c3n2)cc1 | 0.952 | -1.4
O=C(Nc1ccc2c(c1)OCCO2)c1n[nH]c(=O)c2ccccc12 | 1.07 | 0.457
O=S(=O)(Nc1ccc(F)cc1)c1ccc2nc(-c3ccccc3)[nH]c2c1 | 0.98 | -0.0261
Cc1ccc(NC(=O)C2CCC(CNS(=O)(=O)c3cccc4cccnc34)CC2)cc1F (stereo not drawn) | 1.03 | 1.3
Clc1ccc(-c2cc(-c3nc(Cc4cccs4)no3)c3ccccc3n2)cc1 | 1.42 | 8.28
COc1ccc(S(=O)(=O)N2CCN(c3ccc4nnc(-c5ccccc5)n4n3)CC2)cc1 | 0.852 | -2.08

# (continued)
compound | CBX7 AlphaScr | CBX7 AlphaScr z-score
Cc1c(-c2ccccc2)nc2sc3c(c2c1N)CCCCC3 | 0.994 | -0.0843
COc1ccccc1NC(=O)Cn1cnc2sc(C(=O)Nc3ccc(F)cc3Cl)c(C)c2c1=O | 1.06 | 0.612
Cc1ccc(NC(=O)CSc2nnc(Cc3cc(=O)[nH]c(=O)[nH]3)n2-c2ccc(Cl)cc2)c(C)c1 | 1.04 | 0.615
CCOc1ccc(NC(=O)CCn2nc(C)cc2C)cc1 | 0.96 | -1.35
CCC1Oc2ccccc2N(CC(=O)NCCCOC)C1=O (stereo not drawn) | 1.11 | 1.53
CC(C)c1ccc(NS(=O)(=O)c2ccc3[nH]cc(C(=O)NCC4CCCO4)c(=O)c3c2)cc1 (stereo not drawn) | 0.96 | -0.745
O=C(Nc1nnc(-c2ccccc2)o1)c1ccc(Br)cc1 | 0.268* | -18.2*
COc1ccccc1C(=O)N(Cc1ccc(Cl)cc1)C1CCS(=O)(=O)C1 (stereo not drawn) | 0.864 | -0.135
CCOCCCNC(=O)c1cc2c(s1)CS(=O)(=O)C2 | 1.04 | 1.21
Cc1noc(C)c1S(=O)(=O)N1CCCC(C(=O)NCc2ccccc2Cl)C1 (stereo not drawn) | 1.08 | 1.01
COc1ccc(-c2cc(C(=O)Nc3ccc(C)c(C)c3)no2)cc1 | 1.29 | 1.04
O=c1oc2ccccc2cc1-c1nnc(-c2ccccc2O)o1 | 0.705 | -3.19
COc1ccc(-c2nnc(SCC(=O)N3CCCCC3)o2)cc1 | 0.948 | -0.12
CCCN1CCN(C(=O)c2cnc(N3CCN(c4ccccc4OC)CC3)c3ccccc23)CC1 | 0.936 | -0.798
COc1ccc(-n2nnc3c(=O)n(Cc4cccc(Cl)c4)cnc32)cc1 | 1.03 | 0.747
CCN1C(=O)c2ccccc2Sc2ccc(C(=O)NCc3ccccc3Cl)cc21 | 1.09 | 0.678
CCCc1ccc(OCC(O)CN2CC(C)OC(C)C2)cc1 (stereo not drawn) | 0.972 | -0.176
CCOC(=O)c1cn(-c2ccc(OC)cc2)c2cc(Cl)c(F)cc2c1=O | 0.95 | -0.989
CC(C)C(C(=O)Nc1ccc(F)cc1)N1C(=O)c2ccccc2C1=O (stereo not drawn) | 0.988 | -0.0526
CCCCc1nc(SCC(=O)Nc2cc(C)on2)n[nH]1 | 1.26 | 2.34
Cc1cc(C)cc(-n2ccnc2SCC(=O)Nc2cc(C(F)(F)F)ccc2Cl)c1 | 0.775 | -0.225
Cc1ccn2c(=O)c(C(=O)NCc3ccc4c(c3)OCO4)cnc2c1 | 1.06 | 1.76
COc1ccc(-c2nc(CS(=O)(=O)CC(=O)NCCC(C)C)c(C)o2)cc1 | 0.913 | -0.199
CC(C)c1ccc(NC(=O)[C@H](Cc2ccccc2)N2Cc3ccccc3C2=O)cc1 | 0.787 | -0.595
CCCCN(C)S(=O)(=O)c1ccc(C(=O)Nc2nnc(-c3ccccc3Cl)o2)cc1 | 0.911 | -0.374
CC(NC(=O)C(=O)NCCN(C)C)C(c1cccs1)N1CCN(c2ccc(F)cc2)CC1 (stereo not drawn) | 1.13 | 4.16
Cc1ccc(NC(=O)c2c(C)nn(-c3ccccc3)c2Cl)c(C)c1 | 1.2 | 1.69
CCCCCn1c(C(Cc2ccccc2)NC(=O)COC)nc2ccccc21 (stereo not drawn) | 0.997 | -0.058
Cc1[nH]nc(-c2ccc(OC(C)C)cc2O)c1-c1ccccc1 | 0.578 | -1.98
COc1ccc(Nc2cc(C(=O)NCc3ccc(Cl)cc3)c3ccccc3n2)c(OC)c1 | 0.78 | -3.36
COc1ccc(N2C(=O)c3nccnc3C2=O)cc1Cl | 1.02 | 0.749
COc1ccc(Cl)cc1NC(=O)c1c(NCc2cccs2)sc2c1CCC2 | 1.02 | 1.12
O=C(NCCCN1CCOCC1)c1cc(-c2ccc(Br)cc2)on1 | 1.04 | 0.0533
Cc1ccc2c(C)c(C(=O)N(Cc3cccs3)C3CCS(=O)(=O)C3)oc2c1 (stereo not drawn) | 0.979 | -0.229
COc1ccc(-c2nc3cc(C)ccn3c2NC(=O)C(C)C)cc1 | 1.06 | 1.45
Cc1ccc(-n2c3c(cc(C(N)=O)c2=O)C(=O)CC(C)(C)C3)cc1 | 0.915 | -0.359
O=C(CCSc1ccccc1)Nc1ccc(O)c(-c2nc3ccccc3s2)c1 | 1.01 | 0.0341
CCC1=Nc2cc(C(=O)NCc3ccccc3Cl)ccc2Sc2ccc(C)cc21 | 1.04 | 0.433
O=C(CSc1nnc(-c2cccnc2)n1Cc1ccccc1)Nc1ccccc1Cl | 1.14 | 2.24
O=C(c1cc2nc(-c3ccc(F)cc3)cc(C(F)(F)F)n2n1)N1CCCCC1 | 1.07 | 2.37
Cn1c(SCC(=O)N2CCN(c3ccccc3)CC2)nnc1-c1c[nH]c2ccccc12 | 0.897 | -0.98
CC(C)C(NS(=O)(=O)c1cccs1)C(=O)N1CCN(c2ccccc2F)CC1 (stereo not drawn) | 0.983 | -0.342
COc1ccc(CC(=O)Nc2ccc(-c3noc(-c4ccc(Cl)cc4)n3)cc2)cc1 | 0.992 | -0.0779
COc1ccc(C(=O)Nc2ccc(-c3nc4cc(C)cc(C)c4o3)cc2)cc1 | 1.05 | 0.545
CCCOc1c(OC)cccc1C1CC(=O)Nc2cc(OC)c(OC)cc21 (stereo not drawn) | 0.924 | -0.981
Cc1ccccc1Nc1c(-c2ccc(Cl)cc2)nc2ccc(Cl)cn12 | 0.925 | -0.762
CCn1c(C(=O)O)c(CC(=O)Nc2ccc3c(c2)OCCO3)c2ccccc21 | 1.04 | 1.05

# As a short view, part of the list above.
compound | CBX7 AlphaScr | CBX7 AlphaScr z-score
CC1CCN(CCCNC(=O)Cn2nc(Cc3ccncc3)c3ccccc3c2=O)CC1 | 0.975 | -0.831
CCN1CCCC1CNC(=O)Cn1ncc2c1-c1ccccc1OC2 (stereo not drawn) | 1.17 | 2.08
Cc1ccc(C(=O)Nc2ccccc2C(=O)O)cc1S(=O)(=O)N1CCCCCC1 | 0.969 | -1.1

# Some of the compounds tested (hit frequency here may not be typical).
